# Vaccinia inh: Vaccinia orthopox stage-specific inhibition; 89,000 tested, 0.01% active; activity change (mCherry), % (test concentration not listed); Vaccinia-infected cells, mCherry/Venus stage reporter fluorescence; hits give low values; some inactives read as strong as hits; AID 1053133;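 active = mCherry past -33% and 40 or more points under the early reporter, replicates agreeing; inconclusive = past -33% without that gap or agreement; tested in A549 cells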;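 note: scaled between vehicle wells and reference inhibitor wells; 23 nL library stock went into each well; one replicate is shown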
# Vaccinia inh Venus: recorded beside Vaccinia inh, whose call it bears; activity change (Venus), %; measured here: Venus reporter, other viral stage;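 negative = less Venus signal; first of two replicates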
# Starred values were filed as active, the others as inactive; ? = inconclusive; nt = not tested or not shown.
SMILES,Vaccinia inh,Vaccinia inh Venus
COc1ccc(S(=O)(=O)N(C)C[C@@H]2OCCCC[C@@H](C)Oc3ccc(NC(=O)Nc4c(C)noc4C)cc3C(=O)N([C@@H](C)CO)C[C@H]2C)cc1,3,0
O=C(Nc1ccc(F)cc1)N[C@H]1CC[C@H](CCn2cc(-c3ccc(F)cc3)nn2)O[C@@H]1CO,-5,2
C[C@H]1CN([C@@H](C)CO)S(=O)(=O)c2ccc(-c3cccc(C(=O)N(C)C)c3)cc2O[C@@H]1CN(C)C(=O)Nc1ccc(F)cc1,22,11
COCC(=O)Nc1ccc2c(c1)C(=O)N(C)[C@H]1CC[C@@H](CC(=O)NCCCN(C)C)O[C@H]1CO2,-4,-4
Cc1ccccc1S(=O)(=O)N1CC(=O)N2[C@@H](CO)[C@H](c3ccc(C#Cc4ccccc4)cc3)[C@@H]2C1,-8,-2
C[C@@H]1CN([C@@H](C)CO)C(=O)c2cc(NC(=O)C3CC3)ccc2O[C@H]1CN(C)Cc1ccc(Oc2ccccc2)cc1,-25,-13
O=S(=O)(Cc1ccccc1)N1[C@@H]2CNC[C@H]1C2c1ccc(-c2ccccc2)cc1 (stereo partly drawn),2,13
C[C@H]1CCCCO[C@H](CN(C)Cc2ccc(C(=O)O)cc2)[C@@H](C)CN([C@@H](C)CO)C(=O)c2cc(NC(=O)Cc3ccccc3)ccc2O1,7,1
COCC(=O)N(C[C@@H]1N[C@@H](CO)[C@H]1c1ccc(-c2ccccc2)cc1)C(C)C,-3,-1
COc1ccc2c3c(n(C)c2c1)[C@@H](CO)NCC31CCN(C(=O)Nc2ccccc2F)CC1,-15,-8
Cc1ccccc1S(=O)(=O)NCC[C@@H]1CC[C@H](NC(=O)C2CCOCC2)[C@H](CO)O1,11,6
CCC(=O)Nc1ccc2c(c1)C(=O)N(C)[C@H]1CC[C@@H](CC(=O)NCc3ccccc3)O[C@@H]1CO2,9,4
C[C@H]1CN([C@@H](C)CO)C(=O)c2cccc(NC(=O)Nc3ccc4c(c3)OCO4)c2O[C@H]1CN(C)Cc1ccc(-c2ccccc2)cc1,-17,-10
Cc1noc(C)c1S(=O)(=O)Nc1ccc2c(c1)CC(=O)N([C@@H](C)CO)C[C@@H](C)[C@@H](CN(C)S(=O)(=O)c1c(C)noc1C)O2,6,5
COc1ccc(S(=O)(=O)N(C)C[C@@H]2Oc3c(cccc3N(C)C)C(=O)N([C@@H](C)CO)C[C@@H]2C)cc1,21,6
CC=Cc1ccc2n(c1=O)C[C@@H]1[C@@H](CO)[C@H](C(=O)NCCC)N(Cc3cccnc3)[C@H]21 (mixture of isomers),22,14
O=C(Nc1ccccc1F)N[C@@H]1C=C[C@H](CC(=O)N2CCCCC2)O[C@@H]1CO,-8,1
C[C@@H]1CN([C@H](C)CO)C(=O)Cc2cc(NC(=O)C3CC3)ccc2O[C@H]1CN(C)S(C)(=O)=O,13,10
C[C@@H]1CN([C@H](C)CO)S(=O)(=O)c2ccc(Br)cc2O[C@H]1CN(C)Cc1ccccc1,?,nt
C[C@@H]1CCCCO[C@H](CN(C)S(=O)(=O)c2ccccc2)[C@H](C)CN([C@H](C)CO)C(=O)c2cc(NS(=O)(=O)c3cn(C)cn3)ccc2O1,20,14
CO[C@@H]1CN(C)C(=O)c2cc(NS(C)(=O)=O)ccc2OC[C@H](C)N(Cc2ccccc2)C[C@H]1C,-9,11
C[C@@H]1CN([C@H](C)CO)C(=O)c2cc(NC(=O)NC3CCCCC3)ccc2O[C@@H](C)CCCCO[C@H]1CN(C)Cc1ccncc1,-28,-14
O=C(Nc1ccccc1)N[C@@H]1CC[C@@H](CCn2cc(C3(O)CCCC3)nn2)O[C@@H]1CO,2,6
CCC(=O)N(C)C[C@@H]1Oc2ncc(-c3ccccc3F)cc2C(=O)N([C@@H](C)CO)C[C@@H]1C,13,7
CN(C)CC(=O)Nc1ccc2c(c1)[C@@H]1C[C@H](CC(=O)NCc3ccccn3)O[C@H](CO)[C@@H]1O2,-10,-5
C[C@H]1CCCCO[C@@H](CN(C)Cc2ccccc2)[C@@H](C)CN([C@@H](C)CO)C(=O)c2cc(NS(C)(=O)=O)ccc2O1,-12,-9
COC(=O)c1c2oc(c1C(=O)OC)C(=O)N[C@@H](Cc1ccccc1)Cn1cc(nn1)CNC(=O)[C@@H](Cc1ccccc1)NC(=O)N[C@@H](CO)CC2,3,0
Cc1noc(C)c1S(=O)(=O)Nc1ccc2c(c1)C(=O)N([C@H](C)CO)C[C@H](C)[C@H](CN(C)C(=O)C1CCCCC1)OCCCC[C@H](C)O2,-27,-28
COc1ccc2c3c(n(C)c2c1)[C@@H](CO)N(Cc1ccccc1F)CC31CCN(C(=O)C2CCOCC2)CC1,-6,0
C[C@@H]1CN([C@H](C)CO)C(=O)c2ccccc2-c2ccccc2CO[C@H]1CN(C)C(=O)[C@@H]1CCCN1C,11,3
O=C(C[C@@H]1CC[C@@H](NC(=O)C2CCC2)[C@H](CO)O1)NCc1ccccc1Cl,10,0
CCCC(=O)Nc1ccc2c(c1)C(=O)N(C)[C@@H]1CC[C@@H](CC(=O)NCCCN(C)C)O[C@H]1CO2,9,6
COc1ccccc1NC(=O)N1CCCCN2[C@H](CO)[C@H](c3ccc(C#CC4CCCC4)cc3)[C@@H]2C1,-32,-31
COc1ccc(S(=O)(=O)Nc2cccc3c2O[C@H](CN(C)C(=O)Nc2ccc(F)cc2)[C@@H](C)CN([C@H](C)CO)C3=O)cc1,23,5
CC(C)NC(=O)Nc1ccc2c(c1)C(=O)N([C@@H](C)CO)C[C@H](C)[C@H](CN(C)Cc1ccccc1)O2,-5,-4
Cc1ccc(S(=O)(=O)N(C)C[C@@H]2Oc3c(NC(=O)c4ccncc4)cccc3C(=O)N([C@@H](C)CO)C[C@H]2C)cc1,1,5
CO[C@H]1CN(C)C(=O)c2cc(NS(=O)(=O)CC(F)(F)F)ccc2OC[C@@H](C)N(C)C[C@@H]1C,-2,-7
COc1cccc(C(=O)Nc2ccc3c(c2)C(=O)N(C)[C@@H]2CC[C@H](CC(=O)NCC(F)(F)F)O[C@@H]2CO3)c1,10,6
C[C@@H]1CN([C@H](C)CO)C(=O)c2cc(C#CC3(O)CCCC3)cnc2O[C@@H]1CN(C)C(=O)Cc1ccccc1,12,5
C[C@H]1CN([C@@H](C)CO)C(=O)c2cc(/C=C/c3ccccc3)cnc2O[C@H]1CN(C)Cc1cccnc1,-6,-6

# Copied from the results shown, 10 compounds:
SMILES,Vaccinia inh,Vaccinia inh Venus
CO[C@@H]1CN(C)C(=O)c2cc(NS(C)(=O)=O)ccc2OC[C@H](C)N(Cc2ccccc2)C[C@H]1C,-9,11
C[C@@H]1CN([C@H](C)CO)C(=O)c2cc(NC(=O)NC3CCCCC3)ccc2O[C@@H](C)CCCCO[C@H]1CN(C)Cc1ccncc1,-28,-14
O=C(Nc1ccccc1)N[C@@H]1CC[C@@H](CCn2cc(C3(O)CCCC3)nn2)O[C@@H]1CO,2,6
CCC(=O)N(C)C[C@@H]1Oc2ncc(-c3ccccc3F)cc2C(=O)N([C@@H](C)CO)C[C@@H]1C,13,7
CN(C)CC(=O)Nc1ccc2c(c1)[C@@H]1C[C@H](CC(=O)NCc3ccccn3)O[C@H](CO)[C@@H]1O2,-10,-5
C[C@H]1CCCCO[C@@H](CN(C)Cc2ccccc2)[C@@H](C)CN([C@@H](C)CO)C(=O)c2cc(NS(C)(=O)=O)ccc2O1,-12,-9
COC(=O)c1c2oc(c1C(=O)OC)C(=O)N[C@@H](Cc1ccccc1)Cn1cc(nn1)CNC(=O)[C@@H](Cc1ccccc1)NC(=O)N[C@@H](CO)CC2,3,0
Cc1noc(C)c1S(=O)(=O)Nc1ccc2c(c1)C(=O)N([C@H](C)CO)C[C@H](C)[C@H](CN(C)C(=O)C1CCCCC1)OCCCC[C@H](C)O2,-27,-28
COc1ccc2c3c(n(C)c2c1)[C@@H](CO)N(Cc1ccccc1F)CC31CCN(C(=O)C2CCOCC2)CC1,-6,0
C[C@@H]1CN([C@H](C)CO)C(=O)c2ccccc2-c2ccccc2CO[C@H]1CN(C)C(=O)[C@@H]1CCCN1C,11,3

# (continued)
SMILES,Vaccinia inh,Vaccinia inh Venus
C[C@@H]1CCCCO[C@H](CN(C)Cc2ccc(C(=O)Nc3ccccc3N)cc2)[C@@H](C)CN([C@H](C)CO)C(=O)c2cc(NS(=O)(=O)c3cn(C)cn3)ccc2O1,16,11
COc1ccc(S(=O)(=O)N(C)C[C@@H]2OCCCC[C@@H](C)Oc3ccc(NC(=O)c4ccncc4)cc3C(=O)N([C@H](C)CO)C[C@@H]2C)cc1,39,9
O=C(C[C@H]1CC[C@H](NS(=O)(=O)c2ccccc2F)[C@@H](CO)O1)NCCCN1CCOCC1,9,11
COc1ccc(S(=O)(=O)Nc2ccc3c(c2)CC(=O)N([C@H](C)CO)C[C@H](C)[C@H](CN(C)Cc2ccc(-c4ccccc4)cc2)O3)cc1,?,nt
COc1ccc2c3c([nH]c2c1)[C@@H](CO)N(C(=O)c1ccncc1)CC31CN(C(=O)C2CCC2)C1,21,16
CCc1cnc(N2[C@H](C#N)[C@@H](c3ccc(C#Cc4ccccc4F)cc3)[C@H]2CO)s1,-14,-12
O=C(Cc1ccccc1)N1CC(=O)N2[C@@H](CO)[C@@H](c3ccc(Br)cc3)[C@@H]2C1,25,12
C[C@@H]1CN([C@@H](C)CO)C(=O)c2cc(NC(=O)Nc3ccc(F)cc3)ccc2O[C@@H]1CN(C)Cc1ccc(C(=O)O)cc1,24,13
O=C(N[C@@H]1C=C[C@H](CC(=O)N2CCCCC2)O[C@@H]1CO)c1cccc(F)c1,7,6
C[C@H](CO)N1C[C@H](C)[C@H](CN(C)C(=O)c2ccccc2)Oc2cc(C#CC3(O)CCCC3)ccc2S1(=O)=O,9,-3
C[C@@H]1CCCCO[C@H](CN(C)C(=O)Nc2ccc(C(F)(F)F)cc2)[C@H](C)CN([C@@H](C)CO)C(=O)c2cc(NC(=O)Nc3ccc4c(c3)OCO4)ccc2O1,2,1
COc1ccc(S(=O)(=O)Nc2ccc3c(c2)C(=O)N([C@@H](C)CO)C[C@@H](C)[C@H](CN(C)CC2CC2)O3)cc1,4,6
C[C@@H]1CN([C@H](C)CO)C(=O)Cc2cc(NC(=O)Cc3ccccc3)ccc2O[C@@H]1CN(C)Cc1ccccc1,-9,7
C[C@@H]1CN([C@H](C)CO)C(=O)c2cccc(NC(=O)C3CCCCC3)c2O[C@@H]1CN(C)Cc1ccc(C(=O)Nc2ccccc2N)cc1,-15,-12
C[C@H]1CN([C@@H](C)CO)C(=O)c2cccc(NS(=O)(=O)c3cn(C)cn3)c2O[C@@H]1CN(C)Cc1ccc2c(c1)OCO2,17,6
CCCC#Cc1ccc([C@H]2[C@@H](CO)N3CCCCN(CC4CC4)C[C@@H]23)cc1,-16,-14
O=C(C[C@H]1C[C@@H]2c3cc(NC(=O)C4CCC4)ccc3O[C@@H]2[C@H](CO)O1)NCCN1CCCCC1,12,4
C[C@H]1CN([C@@H](C)CO)C(=O)c2cc(C#CC3(O)CCCC3)cnc2O[C@@H]1CN(C)Cc1ccccc1,12,0
COc1ccc(S(=O)(=O)Nc2cccc3c2O[C@@H](CN(C)C(=O)Nc2c(C)noc2C)[C@@H](C)CN([C@@H](C)CO)C3=O)cc1,14,4
CO[C@H]1CN(C)C(=O)c2cc(NC(=O)C3CCC3)ccc2OC[C@@H](C)N(C(=O)NC(C)C)C[C@H]1C,13,12
CCCNC(=O)[C@@H]1[C@@H](CO)[C@@H]2Cn3c(ccc(-c4ccc(F)cc4)c3=O)[C@H]1N2CCC,11,-1
C[C@@H]1CCCCO[C@@H](CN(C)C(=O)NC2CCCCC2)[C@H](C)CN([C@@H](C)CO)C(=O)c2cc(NS(=O)(=O)c3cn(C)cn3)ccc2O1,-2,-2
O=C(C[C@H]1CC[C@@H](NC(=O)CCN2CCCCC2)[C@H](CO)O1)NCc1ccc(Cl)c(Cl)c1,-9,0
CN(C)CCCNC(=O)C[C@@H]1CC[C@H]2[C@@H](COC[C@H](O)CN2S(=O)(=O)c2ccccc2)O1,8,5
O=C(C[C@H]1CC[C@H]2[C@@H](COC[C@@H](O)CN2C(=O)c2ccccc2F)O1)NCc1ccc(F)cc1,22,5
C[C@@H]1CN([C@@H](C)CO)C(=O)c2cc(NC(=O)CCN3CCOCC3)ccc2O[C@H]1CN(C)CC1CCCCC1,8,-3
COc1ccc(CN(C)C[C@@H]2Oc3ccc(NS(=O)(=O)c4ccc(OC)cc4)cc3C(=O)N([C@@H](C)CO)C[C@@H]2C)cc1,12,5
COc1ccc(CN(C)C[C@H]2OCCCC[C@H](C)Oc3ccc(NC(=O)Nc4ccc(C(F)(F)F)cc4)cc3C(=O)N([C@@H](C)CO)C[C@H]2C)cc1,?,nt
COCC#Cc1cnc2c(c1)C(=O)N([C@H](C)CO)C[C@H](C)[C@H](CN(C)C(=O)C1CCC1)O2,12,15
O=C(C1=C[C@H](C2CCCCC2)C[C@H](OCc2ccc(CO)cc2)O1)N1CCCC1,-9,-3
CN1C[C@H]2[C@@H](c3ccccc31)[C@@H](CO)N2C(=O)C1CCOCC1,12,8
Cc1ccc(S(=O)(=O)N(C)C[C@H]2Oc3ccc(NC(=O)NC4CCCCC4)cc3CC(=O)N([C@@H](C)CO)C[C@@H]2C)cc1,0,0
COCC(=O)Nc1ccc2c(c1)C(=O)N(C)C[C@H](OC)[C@H](C)CN(Cc1ccccn1)[C@H](C)CO2,-2,-6
CC(C)NC(=O)N(C)C[C@@H]1OCCCC[C@H](C)Oc2ccc(NC(=O)Nc3cccc4ccccc34)cc2C(=O)N([C@H](C)CO)C[C@@H]1C,5,4
C[C@@H]1CN([C@@H](C)CO)C(=O)c2cc(NC(=O)c3ccncc3)ccc2O[C@@H](C)CCCCO[C@@H]1CN(C)S(=O)(=O)c1ccc(Cl)cc1,-8,-9
C[C@@H]1CN([C@@H](C)CO)S(=O)(=O)c2ccc(-c3cccc(C(=O)N(C)C)c3)cc2O[C@H]1CN(C)C(=O)Cc1ccccn1,-5,1
CCC(=O)N1C[C@H](C)[C@@H](OC)CN(C)C(=O)c2ccc(NC(=O)c3ccccc3)cc2OC[C@H]1C,3,9

# From PubChem

# Some of the compounds tested. The share of hits here may be higher or lower than overall.
